# Bioassay records as filed in PubChem BioAssay.
# FGF22 binding: binders of recombinant human FGF22 by thermal shift. Q9HCT0. SYPRO orange fluorescence; percent of sucrose octasulfate shift, DMSO zero. calls only at 9.99 µM. 340,000 tested, 1.5% active. AID 651658;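 active means melting point raised past a set limit in the mean and every replicate; inconclusive means no clear call; three in four hits are not shown here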
# Target sequence (Q9HCT0 whole entry, looked up): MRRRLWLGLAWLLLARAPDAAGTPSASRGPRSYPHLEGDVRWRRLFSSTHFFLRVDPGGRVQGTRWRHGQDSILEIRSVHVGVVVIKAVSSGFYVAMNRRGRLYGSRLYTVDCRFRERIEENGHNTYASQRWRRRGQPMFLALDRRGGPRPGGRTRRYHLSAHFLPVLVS
# Ecoli rRNA inh: inhibits bacterial ribosomal RNA function over humanized ribosomes; E. coli WT GFP vs humanized-ribosome RFP mutants, fluorescence, 24 h; hits give low values; DMSO median 0, no signal -100; GFP signal change (wild-type ribosome), % (no concentration beside the values); 350,000 tested, 1.6% active;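 active means significant combined selectivity score with lowered wild-type GFP, culture density cut under 30%, mutant RFP and density less affected; inactive means any of these conditions unmet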; further: one replicate is shown; some compounds called inactive have numbers as strong as hits
# HNF4A DNA FP: change in binding of human HNF4 alpha to DNA; HNF4a-FITC DNA binding, fluorescence polarization, 1 h; activity change, % at 10 µM; 360,000 tested, 0.3% active; in the data active means activity change above about 30%, passing the limit was not always enough;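 further: controls were the assay level and a saturating level of protein; the project sought stronger binding though the title names inhibitors; some compounds called inactive have numbers as strong as hits; positive values seem to mean higher polarization but the record does not say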
# ALR H2O2 inh: inhibitors of human sulfhydryl oxidase ALR | inhibition, % (test concentration not listed) | purified ALR, DTT oxidation, H2O2 HRP-luminol luminescence | 290,000 tested, 3.8% active | P55789;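 active means mean and each replicate at 75% or more; inconclusive means only one of the two met; inactive means neither met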;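 further: stock transfer was 7.5 nL into about 7.5 µL; 0% = neutral wells and 100% = wells with inactivated enzyme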
# Target sequence (P55789 whole entry, looked up): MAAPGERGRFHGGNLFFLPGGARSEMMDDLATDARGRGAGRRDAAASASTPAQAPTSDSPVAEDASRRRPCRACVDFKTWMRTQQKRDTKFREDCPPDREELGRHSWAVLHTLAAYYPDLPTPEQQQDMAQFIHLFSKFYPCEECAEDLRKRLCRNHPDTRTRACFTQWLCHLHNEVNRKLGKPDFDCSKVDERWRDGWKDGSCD
# E coli growth: inhibitors of Escherichia coli growth; OD600, 23 h; hits give low values; OD600 absorbance (no concentration beside the values); 330,000 tested, 0.21% active; AID 1053175;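 active means OD600 absorbance below the run mean of sample wells minus 3.6 SD, in any replicate, cut at about 0.56 in these data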;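 further: stock transfer was 300 nL into about 60 µL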
# Vif A3G: inhibitors of Vif binding to APOBEC3G peptide, primary screen, biochemical, TR-FRET, GST-Vif 1-94, biotin-A3G peptide, dose response retest (AID 1117319). TR-FRET GST-Vif / biotin-A3G peptide binding; higher % means a stronger effect; test concentration not given here; strong numbers were not always called active. one-dose inhibition, %; IC50 in µM for titrated hits. 260,000 tested, 0.57% active;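 active means above the screen mean plus three standard deviations and confirmed in dose response; inconclusive means results disagree or hit not tested in dose response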;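 further: Vif residues 1-94 fused to GST binding biotinylated APOBEC3G peptide 110-148; 0% = full assay without inhibitor and 100% = GST in place of GST-Vif; retest series ran down from 100 µM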
# MLL AF4-AF9 inh: MLL-AF4/AF9 protein interaction inhibition; 350,000 tested, 0.47% active; inhibition, % at 10 µM; AlphaScreen, biotin-AF4 peptide binding to FLAG-AF9; AID 651704;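 active means every replicate reaching a set inhibition limit, whatever the replicate mean, cut at about 25% in these data; inconclusive means mean inhibition reaches that limit but some replicates miss it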;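 further: 0% = plate neutral control median and 100% = total signal loss; the record names both 10 and 1 µM as test concentration; the first replicate is given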
# Target sequence (P42568 whole entry, looked up): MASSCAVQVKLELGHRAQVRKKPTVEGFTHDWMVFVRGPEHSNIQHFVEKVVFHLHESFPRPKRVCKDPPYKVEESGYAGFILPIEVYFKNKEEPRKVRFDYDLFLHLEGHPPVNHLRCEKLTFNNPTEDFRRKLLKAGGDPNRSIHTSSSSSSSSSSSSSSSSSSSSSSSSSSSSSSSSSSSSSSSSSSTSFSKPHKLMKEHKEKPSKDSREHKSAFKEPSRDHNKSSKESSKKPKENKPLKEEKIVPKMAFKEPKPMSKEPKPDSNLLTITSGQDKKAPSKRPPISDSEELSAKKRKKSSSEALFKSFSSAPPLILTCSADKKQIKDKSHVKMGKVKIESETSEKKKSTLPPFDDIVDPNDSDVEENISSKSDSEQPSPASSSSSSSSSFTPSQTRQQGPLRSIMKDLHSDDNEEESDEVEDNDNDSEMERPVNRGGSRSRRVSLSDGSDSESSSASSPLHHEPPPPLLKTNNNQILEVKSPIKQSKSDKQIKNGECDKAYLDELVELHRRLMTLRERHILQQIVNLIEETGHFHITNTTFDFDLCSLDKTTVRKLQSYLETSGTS
# Ecoli rRNA inh OD600: second read-out of Ecoli rRNA inh, no call of its own (marks repeat the call); OD600 change, %; measured here: OD600 growth;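 optical density of the mix in the first replicate; 0 = DMSO median and -100 = no signal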
# Ecoli rRNA inh RFP: recorded beside Ecoli rRNA inh, whose call it bears; RFP signal change, %; measured here: RFP humanized mutant strains;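 first replicate; 0 = DMSO median and -100 = no signal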
# * marks the source's active call; other numbers are inactive results; i = inactive; u = inconclusive; x = not tested or not shown. An excerpt (hit frequency here may not be typical).
compound | Ecoli rRNA inh OD600 | FGF22 binding | Ecoli rRNA inh RFP | Vif A3G | E coli growth | ALR H2O2 inh | MLL AF4-AF9 inh | HNF4A DNA FP | Ecoli rRNA inh
CCOC(=O)N1CCN(C(=O)/C(=C/c2ccc(N(C)C)cc2)NC(=O)c2ccccc2)CC1 | -4 | i | 1.6 | 12% | 0.72 | x | 14 | -3.4 | 4
C[C@H]1CN([C@@H](C)CO)C(=O)c2cc(C#CCc3ccccc3)cnc2O[C@H]1CN(C)CC1CCOCC1 | 7 | i | 1.4 | x | x | x | 1.5 | x | -1
C[C@H]1CN([C@@H](C)CO)C(=O)c2cccc(NS(=O)(=O)c3cn(C)cn3)c2O[C@H]1CN(C)S(=O)(=O)c1ccccc1 | 11 | i | -1.7 | x | x | x | -1.0 | x | -1
COc1ccc(NC(=O)c2cccc(OC(=S)N3CCOCC3)c2)cc1 | -12 | i | -5.3 | 29% | 0.66 | 2 | -12 | -1.1 | -9
CNC(=O)c1c(NC(=O)CS(=O)(=O)c2ccccc2)sc(C)c1C | 8 | i | 1.7 | 3% | 0.69 | x | 3.2 | -0.5 | 0
COc1cccc(NC(=O)CCN2CCOCC2)c1 | 1 | i | -0.3 | -4% | 0.63 | -4 | -0.2 | 4.5 | 4
CCOc1ccc(CCNC(=O)CSCC(=O)Nc2ccc(OC)cc2)cc1OCC | 0 | i | 0.2 | 7% | 0.68 | x | -1.2 | -1.0 | -3
CC(C)(C)C(=O)Nc1ccc(C(=O)COC(=O)C2CC2)cc1 | 5 | i | -0.7 | 1% | 0.63 | x | -30 | 0.3 | 3
NS(=O)(=O)c1cccc(NC(=O)CSc2nc3ccccc3[nH]2)c1 | -15 | i | -4.6 | x | 0.65 | -8 | -1.1 | -0.2 | -1
CCN(CC1CCCN(CCc2cccc(F)c2)C1)C(=O)c1ccoc1C (stereo not drawn) | 9 | i | -3.4 | x | x | x | 1.0 | 0.6 | 9
Cc1ccc(C2=NN(CC(=O)NCc3cccs3)C(=O)CC2)cc1 | 9 | i | 0.8 | 5% | x | -6 | 4.4 | -0.1 | 7
COc1cccc(OC)c1OCCCOc1ccc([N+](=O)[O-])cc1Cl | x | i | x | 11% | 0.69 | 2 | 3.2 | -1.7 | x
O=C(NCc1cccs1)c1cc(-c2cccs2)on1 | 9 | x | -0.4 | 18% | 0.7 | -5 | x | -2.1 | 8
Cc1ccc2c(c1)CC(C)N2S(=O)(=O)c1nnc(NC(=O)CC(C)C)s1 (stereo not drawn) | 12 | i | -1.2 | -1% | 0.68 | -7 | 0.0 | 1.5 | 9
COc1ccccc1CCNC(=O)C1(C)CC1(Cl)Cl (stereo not drawn) | 7 | i | -1.5 | x | 0.71 | -8 | -9.7 | -2.3 | -1
Cc1cc(C)cc(NC(=S)N2CCCC2)c1 | 17 | i | 3.4 | x | 0.69 | -5 | -1.5 | 0.4 | 12
COc1ccc(S(=O)(=O)N(C)C[C@@H]2Oc3ccc(NC(=O)Cn4cnnn4)cc3CC(=O)N([C@@H](C)CO)C[C@H]2C)cc1 | 2 | i | -1.5 | x | x | x | 0.8 | x | -3
O=C(CSc1nnc2ccc3ccccc3n12)N1CCOCC1 | x | x | x | 6% | 0.69 | 0 | x | 0.0 | x
CN1c2ccc(-c3ccc(F)cc3)cc2[C@H]2[C@H](CCN2S(=O)(=O)c2ccc(F)cc2)[C@@H]1CO | -1 | i | 5.2 | x | x | x | -3.8 | x | 2
O=C(NCC1CCCO1)c1cccc(S(=O)(=O)N2CCOCC2)c1 (stereo not drawn) | 8 | i | -4.1 | 3% | 0.69 | 0 | 0.0 | 2.3 | 2
CCOC(=O)c1ccc(NC(=S)N2CCN(c3ccc(N4CCOCC4)nn3)CC2)cc1 | 15 | i | -0.8 | -18% | 0.71 | -2 | -3.6 | 0.3 | 14
Cc1ccccc1OCCC(=O)Nc1cc(S(=O)(=O)N2CCOCC2)ccc1OC(C)C | -5 | i | 5.5 | x | 0.74 | 7 | -1.6 | 0.3 | -5
CCOC(=O)c1cnn2cc(-c3[nH]ncc3[N+](=O)[O-])cnc12 | x | i | x | u | x | x | 2.5 | 0.7 | x
CCOC(=O)c1c(S(=O)(=O)N(C)Cc2ccco2)c(C)n(C)c1C | 2 | i | -3.9 | x | 0.67 | -4 | 3.2 | 0.9 | 0
COCCCN1CN=C(NS(=O)(=O)c2ccc(C)cc2)NC1 | 2 | i | -5.2 | x | 0.7 | -7 | -4.9 | 0.1 | 6

# A second format for some results above:
# Each structure is followed by: Ecoli rRNA inh OD600, FGF22 binding, Ecoli rRNA inh RFP, Vif A3G, E coli growth, ALR H2O2 inh, MLL AF4-AF9 inh, HNF4A DNA FP, Ecoli rRNA inh
- COc1ccccc1CCNC(=O)C1(C)CC1(Cl)Cl (stereo not drawn)
 : 7, i, -1.5, x, 0.71, -8, -9.7, -2.3, -1
- Cc1cc(C)cc(NC(=S)N2CCCC2)c1
 : 17, i, 3.4, x, 0.69, -5, -1.5, 0.4, 12
- COc1ccc(S(=O)(=O)N(C)C[C@@H]2Oc3ccc(NC(=O)Cn4cnnn4)cc3CC(=O)N([C@@H](C)CO)C[C@H]2C)cc1
 : 2, i, -1.5, x, x, x, 0.8, x, -3
- O=C(CSc1nnc2ccc3ccccc3n12)N1CCOCC1
 : x, x, x, 6%, 0.69, 0, x, 0.0, x
- CN1c2ccc(-c3ccc(F)cc3)cc2[C@H]2[C@H](CCN2S(=O)(=O)c2ccc(F)cc2)[C@@H]1CO
 : -1, i, 5.2, x, x, x, -3.8, x, 2
- O=C(NCC1CCCO1)c1cccc(S(=O)(=O)N2CCOCC2)c1 (stereo not drawn)
 : 8, i, -4.1, 3%, 0.69, 0, 0.0, 2.3, 2

# Part of the list above with just MLL AF4-AF9 inh.
Structure | MLL AF4-AF9 inh
Cc1ccc2c(c1)CC(C)N2S(=O)(=O)c1nnc(NC(=O)CC(C)C)s1 (stereo not drawn) | 0.0
COc1ccccc1CCNC(=O)C1(C)CC1(Cl)Cl (stereo not drawn) | -9.7

# Going on with the list.
compound | Ecoli rRNA inh OD600 | FGF22 binding | Ecoli rRNA inh RFP | Vif A3G | E coli growth | ALR H2O2 inh | MLL AF4-AF9 inh | HNF4A DNA FP | Ecoli rRNA inh
COc1ccc(/C=C/C(=O)OCC(=O)N2CCc3ccccc32)cc1 | 16 | i | -1.6 | -1% | 0.7 | -1 | -6.4 | -0.2 | 2
CC(c1ccccc1)c1nnc(NC(=O)Nc2ccccc2F)s1 (stereo not drawn) | 2 | i | -0.1 | -1% | 0.68 | 1 | 6.9 | -1.1 | 5
Cc1ccc(CNC(=O)C(=O)NCCC2=CCCCC2)cc1 | 9 | i | -0.5 | 3% | 0.69 | 1 | -1.8 | 0.5 | 13
O=C(Nc1ccnn1C1CCN(Cc2ccc(OC(F)F)cc2)CC1)C1CCCC1 | 7 | i | 1.3 | x | 0.7 | 2 | 5.2 | -2.3 | 5
COc1ccc(CN2CCn3nc(C(=O)NC4CC4)cc3C2=O)cc1 | 6 | i | -1.1 | -9% | 0.69 | -1 | 0.0 | 3.3 | 13
COc1ccc(NC(=O)C[C@H]2C(=O)N(c3ccc(Br)cc3)C[C@@H]2c2ccc(OC)cc2)cc1 | x | i | x | -3% | x | x | 4.5 | 3.7 | x
CC(=O)Nc1cc2c(cc1[N+](=O)[O-])-c1ccccc1C2O (stereo not drawn) | x | x | x | 22% | 0.7 | x | x | -3.5 | x
COc1ccccc1NC(=S)NNC(=O)c1nn(C)c(C)c1Br | x | x | x | 15% | 0.7 | 60 | x | -2.1 | x
CCC(=O)N1[C@H](C(=O)NC2CCC2)[C@@H](CO)[C@@H]2Cn3c(cccc3=O)[C@@H]21 | -2 | i | -4.0 | x | x | x | 0.3 | x | 2
CCNC(=O)C[C@H]1CC[C@H]2[C@H](COc3ccc(NC(=O)c4ccc(F)cc4)cc3C(=O)N2C)O1 | 0 | i | -1.1 | x | x | x | -0.8 | x | -3
CCN(c1ccccc1)S(=O)(=O)c1cc(C(=O)Nc2cccc(Cl)c2)ccc1F | -33 | i | 23 | x | 0.71 | 11 | -4.0 | -2.2 | -18
CCCCCC/C=C/c1ccc(OC)c([C@H]2[C@H]3C=CC[C@@H](C)[C@@H]3C(=O)N2Cc2ccccc2)c1 | 2 | i | -4.0 | 2% | x | -2 | 8.5 | -0.8 | 0
COCC#Cc1ccc2c(c1)O[C@@H](CN(C)Cc1ccc3c(c1)OCO3)[C@H](C)CN([C@H](C)CO)S2(=O)=O | -47 | i | 0.6 | x | x | x | 5.7 | x | -18
COC(=O)Cn1c(C)nc([N+](=O)[O-])c1Br | 3 | i | -1.8 | -1% | 0.66 | 23 | 2.0 | 0.7 | 11
CCN1CCN(CCCNC(=O)C2c3ccccc3C(=O)N(C)C2c2ccc(OC)cc2)CC1 (stereo not drawn) | x | x | x | -2% | 0.66 | -18 | x | 0.7 | x
COc1ccccc1CCC(=O)N1CCC(n2nccc2NC(=O)CC(C)C)CC1 | 7 | i | 0.8 | x | 0.72 | -2 | -5.1 | -2.3 | 3
COc1cc2nc(C3CCC3)n(NC(=O)C3CCC(OC)CC3)c(=O)c2cc1OC (stereo not drawn) | x | x | x | -2% | 0.73 | x | x | 0.6 | x
O=C(Nc1ccc(-c2nc3c(ccc4ccccc43)o2)cc1)c1ccco1 | 11 | i | 3.9 | -2% | 0.64 | -5 | 5.2 | 4.1 | 8
O=C(COC(=O)/C=C/c1ccc2c(c1)OCO2)NCc1ccc(F)cc1 | 11 | i | -2.5 | -1% | x | x | 2.5 | 0.8 | 2
Cc1cc(S(=O)(=O)Nc2ccc(C(=O)N3CC(C)OC(C)C3)cc2)ccc1F (stereo not drawn) | 2 | i | 1.6 | -5% | 0.63 | x | 2.9 | 1.0 | 3
CS(=O)(=O)N1Cc2cc(C(=O)NCC3CC3)nc(-c3cccc(-c4cncnc4)c3)c2[C@@H]1CCO | -16 | i | -4.0 | x | x | x | 3.9 | x | -9
CCC1S/C(=N/C(=O)NC2CCCCC2)NC1=O (stereo not drawn) | x | x | x | 2% | 0.71 | x | x | 1.8 | x
CCCN(CC1CC1)C(=S)Nc1ccc(Oc2ccccc2)cc1 | x | x | x | x | 0.69 | 14 | x | 3.7 | x
Cc1nc(C(F)(F)F)c(C(=O)NC(=O)Nc2ccc(OC(F)(F)F)cc2)s1 | -1 | x | -4.3 | 6% | 0.63 | -1 | x | 2.1 | -1
Cc1ccccc1NC(=O)C(C)n1c2ccccc2c2nc(=O)cc(C)n21 (stereo not drawn) | 9 | x | -0.3 | x | 0.66 | -20 | -4.6 | -0.3 | 3
O=C(COC(=O)/C=C/c1ccc(Cl)c(Cl)c1)NC1CCCC1 | 4 | i | -0.9 | -8% | 0.7 | 2 | -2.6 | 3.1 | -5
O=C(COc1c(Br)cc(Br)c2cccnc12)N1CCCCC1 | -77 | i | -24 | -38% | 0.7 | -12 | -2.1 | -1.4 | -52

# Complete entries from above. Values in the order: Ecoli rRNA inh OD600	FGF22 binding	Ecoli rRNA inh RFP	Vif A3G	E coli growth	ALR H2O2 inh	MLL AF4-AF9 inh	HNF4A DNA FP	Ecoli rRNA inh
# CCN1CCN(CCCNC(=O)C2c3ccccc3C(=O)N(C)C2c2ccc(OC)cc2)CC1 (stereo not drawn) as listed: x	x	x	-2%	0.66	-18	x	0.7	x
# O=C(COc1c(Br)cc(Br)c2cccnc12)N1CCCCC1 as listed: -77	i	-24	-38%	0.7	-12	-2.1	-1.4	-52
# COc1ccccc1NC(=S)NNC(=O)c1nn(C)c(C)c1Br as listed: x	x	x	15%	0.7	60	x	-2.1	x
# COC(=O)Cn1c(C)nc([N+](=O)[O-])c1Br as listed: 3	i	-1.8	-1%	0.66	23	2.0	0.7	11
